VDR inh – inhibitors of human vitamin D receptor. P11473. Potency, µM, without a hit: max response, negative = inhibition, most hits filed as inhibitors. AID 504847. actives 0.93% (n = 400,000). VDR-SRC2-3 peptide fluorescence polarization, 2 h; active means well fitted inhibition curve with a large enough effect; inconclusive means small, poorly fitted or top-dose-only effect, or another doubt; inactive means no such curve, though single readings can be large or run the other way; further: series mostly up to about 120 µM
Target sequence (P11473 whole entry, looked up): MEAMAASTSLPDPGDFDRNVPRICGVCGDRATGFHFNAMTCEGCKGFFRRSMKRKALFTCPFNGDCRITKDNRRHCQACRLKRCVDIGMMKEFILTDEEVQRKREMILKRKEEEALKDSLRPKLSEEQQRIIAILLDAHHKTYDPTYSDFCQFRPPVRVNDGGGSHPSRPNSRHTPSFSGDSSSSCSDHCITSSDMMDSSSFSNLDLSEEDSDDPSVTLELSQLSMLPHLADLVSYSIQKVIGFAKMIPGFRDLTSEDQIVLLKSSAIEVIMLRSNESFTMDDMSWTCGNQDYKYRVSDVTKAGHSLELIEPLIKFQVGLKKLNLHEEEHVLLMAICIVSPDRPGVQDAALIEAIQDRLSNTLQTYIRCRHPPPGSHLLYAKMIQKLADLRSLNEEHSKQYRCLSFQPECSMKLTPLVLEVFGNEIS
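Reagent solutions, kept cold and dark, are dispensed first; compounds are then pinned in at 23 nl, plates briefly spun, and incubated 2 h at ambient temperature. Inhibition of VDR–SRC2-3 peptide binding is read by fluorescence polarization.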
Numbers without * were called inactive; u = inconclusive; & = joins results of further samples; [ ] = dose if it differs, or a comment. On the % scale 0 is the no-effect control and ±100 the full control effect; potency means the concentration at half of the fitted maximal effect.

# | mol | VDR inh
1 | COc1cccc(CN(C)C(=O)c2ccc(COc3ccc(Cl)cc3)cc2)c1OC | -2%
2 | COC(=O)c1ccc(NC(=O)c2ccc[n+]([O-])c2)cc1 | -2%
3 | O=C(Nc1ccccc1)C1C(c2ccccc2)C1(Cl)Cl (configuration not stated) | -5%
4 | CC(Sc1nncs1)C(=O)Nc1ccc(S(=O)(=O)Nc2ncccn2)cc1 (configuration not stated) | -16%
5 | CC(C)(Oc1ccc(Cl)cc1)C(=O)NNC(=O)c1ccc(Br)o1 | 2%
6 | Oc1ccc(-c2[nH]ncc2-c2cccc3cccnc23)c(O)c1 | 4%
7 | CCCCCCCC(=O)NNC(=O)CC(=O)Nc1ccccc1C(=O)O | 7%
8 | CCCCNC(=O)NC(C(=O)OC)C12CC3CC(CC(C3)C1)C2 (configuration not stated) | 3%
9 | COc1cccc(CSc2nnc(-c3ccncc3)n2N)c1 | -18%
10 | CCC(Sc1nnc(C)n2c1cc1occc12)C(=O)Nc1ccccc1F (configuration not stated) | 5%
11 | O=C(c1cc(-c2ccco2)on1)N1CCOCC1 | -3%
12 | COC(=O)c1ccccc1NC(=O)CCC(=O)N1CC(C)Sc2ccccc21 (configuration not stated) | 13%
13 | CCc1ccccc1NC(=O)c1cc2nc(-c3ccc(Br)cc3)cc(C(F)(F)F)n2n1 | 1%
14 | O=S(=O)(O)c1cc2onnc2c2ccccc12 | 18µM*
15 | COc1cc(/C=C2\SC(=S)N(NC(C)=O)C2=O)ccc1OC(=O)c1ccco1 | 5%
16 | C=CCNc1nc(-c2ccc([N+](=O)[O-])cc2)cs1 | -8%
17 | O=C(OCc1cccc(C(F)(F)F)c1)c1cc([N+](=O)[O-])ccc1N1CCOCC1 | u
18 | Cc1ccc(NC(=O)Nc2ccccc2C#N)c(Cl)c1 | -6%
19 | N#Cc1ccc(OCc2nnc(SCC(=O)c3ccccc3)n2-c2ccccc2)cc1 | 13%
20 | C=CCNC(=S)NNC(=O)c1ccc(=O)n(Cc2ccccc2)c1 | 11%
21 | COCCCNc1oc(-c2ccc(COc3ccccc3C)o2)nc1C#N | 15%
22 | C=CCSc1ncnc2c1oc1nc3c(cc12)COC(C)(C)C3 | 2%
23 | COc1ccc(-c2cn[nH]c2N)cc1 | -19%
24 | O=C(NCc1ccccc1)C1=C[C@@H](c2ccccc2)C[C@@H](OCc2ccc(CO)cc2)O1 | -13%
25 | O=c1[nH]c(Nc2ccc(F)cc2)cc2ccccc12 | -13%
26 | Cc1ccc(-c2csc3ncnc(Oc4cccc5ccc(C)nc45)c23)cc1 | -9%
27 | COc1cc(Nc2nc3ccc(Cl)cc3nc2-n2nc(C)cc2C)cc(OC)c1 | -5%
28 | Cc1onc(-c2c(F)cccc2Cl)c1C(=O)OCc1cnc(Cl)s1 | -9%
29 | COc1ccc(-c2csc(NC(=O)c3cccc(S(=O)(=O)N4CCN(C)CC4)c3)n2)cc1 | 1%
30 | CCCc1nnc(SCC(=O)Nc2ccccc2Cl)n1CC1CCCO1 (configuration not stated) | 0%
31 | CC(C)Cn1c2c(c(O)c(C(=O)Nc3ncccc3O)c1=O)CCCC2 | -16%
32 | O=C(Nc1ccc2c(c1)OCO2)c1ccc(COc2ccc3c(c2)CCC3)o1 | 20%
33 | COC(=O)c1cn(CC(=O)N2C(C)CCCC2C)c2ccccc12 (configuration not stated) | 0%
34 | C=Cc1ccc(Cn2c(C)c(CNCc3cccc(Br)c3)c(C(=O)O)c2C)cc1 | 9%
35 | CCCOc1ccc(N2C(=O)CC(NCCNc3ccc([N+](=O)[O-])cn3)C2=O)cc1 (configuration not stated) | 3%
36 | O=C1CCCC2=C1C(c1ccc(Cl)cc1)N1C(=O)CCSC1=N2 (configuration not stated) | -18%
37 | Oc1c(Br)cc(Br)cc1C=Nc1ccc2[nH]ncc2c1 | -4%
38 | CC(C)(C)C1c2[nH]c3ccccc3c2CCN1CCCn1cccn1 (configuration not stated) | 8%
39 | COc1ccc(N2CCN(C(=O)c3c(-c4c(F)cccc4Cl)noc3C)CC2)cc1 | -12%
40 | COc1ccc(-n2ncc3c2CC(C)(C)CC3NC(=O)c2oc(C)cc2C)cc1 (configuration not stated) | -15%
41 | O=C(CCCCC(=O)Sc1ccccc1)Sc1ccccc1 | 79µM*
42 | COc1cc(NC(=O)CCNC(=O)Cn2cnc3ccccc3c2=O)cc(OC)c1OC | 7%&-8%
43 | C=CCOc1ccc(/C=N/NC(C)=O)cc1OCC | 12%
44 | COc1ccc(NCc2nnc(SCCN3CCCCC3)n2-c2ccc(C)cc2)cc1 | -28%
45 | S=C(Nc1ccccc1Cl)N1CCN(c2ccccn2)CC1 | -5%
46 | CCN(CC)c1ccc(/C=N/N2CCN(Cc3ccccc3)CC2)cc1 | -23%
47 | O=C(COc1ccccc1)N1CCN(C(=O)c2cccs2)CC1 | -5%
48 | CC1CCN(c2ccccc2NC(=O)c2ccc(N3CCOCC3)c([N+](=O)[O-])c2)CC1 | 15%
49 | CCCNC(=O)c1ccc(N2CCC3(CC2)CC(c2cccc(Br)c2)=NO3)c(NC(=O)c2cccc(OC)c2)c1 | 5%
50 | Cc1nc2c(c(C)nn2-c2ccccc2)c(C)c1CCC(=O)Nc1ccccc1 | -1%
51 | CCOc1ccccc1C(=O)Nc1cccc(-c2ccc(N3CCOCC3)nn2)c1 | 4%
52 | COc1ccccc1NS(=O)(=O)c1cccc(C(=O)NCC(c2ccco2)N2CCCCC2)c1 (configuration not stated) | -9%
53 | CCn1c(COC(=O)CNC(=O)c2ccccc2F)nc2cc(S(=O)(=O)N(C)C)ccc21 | -13%
54 | CC(=O)Nc1ccc(N2C(=O)c3ccc(S(=O)(=O)c4ccc(C(=O)O)cc4)cc3C2=O)cc1 | 7%
55 | COc1ccc(OC)c(S(=O)(=O)Nc2ccc(C)c(C)c2)c1 | 2%
56 | Nn1c(=O)c2ccccc2n2c(SCc3ccc(C(F)(F)F)cc3)nnc12 | -5%
57 | CCN1CCN(CC(=O)Nc2cccc(C)c2)C(=O)C1=O | 2%
58 | CC1=NOC(=O)/C1=C\c1ccc(-c2cccc(Cl)c2)o1 | u
59 | COc1ccc(-c2nc(CN3CCC(C(=O)N4CCOCC4)CC3)c(C)o2)c(OC)c1 | -12%
60 | C(=N\c1ncnc2sccc12)/NOCc1ccccc1 | 22%

Gathered by group: the compounds so far with an NH in an aromatic ring.
# | mol | VDR inh
6 | Oc1ccc(-c2[nH]ncc2-c2cccc3cccnc23)c(O)c1 | 4%
23 | COc1ccc(-c2cn[nH]c2N)cc1 | -19%
25 | O=c1[nH]c(Nc2ccc(F)cc2)cc2ccccc12 | -13%
37 | Oc1c(Br)cc(Br)cc1C=Nc1ccc2[nH]ncc2c1 | -4%
38 | CC(C)(C)C1c2[nH]c3ccccc3c2CCN1CCCn1cccn1 (configuration not stated) | 8%

Going on with the list.
# | mol | VDR inh
61 | CN(C)c1ccc(/C=N\NC(=O)CC#N)cc1 | 7%
62 | CCCc1ccc(C(=O)CCC(=O)NNC(=O)c2ccncc2)cc1 | 10%
63 | CCCN1CCc2c(sc(NC(=S)NC(=O)c3ccccc3)c2C#N)C1 | u
64 | CC(C(N)=O)N1c2cccc3cccc(c23)S1(=O)=O (configuration not stated) | 10%
65 | Cc1cccc(OCc2nnc(SCC(=O)N3c4ccccc4CCc4ccccc43)o2)c1 | -4%
66 | O=C(NCc1ccco1)c1cccc2c1C(=O)c1ccc(N3CCCC3)cc1S2(=O)=O | -6%
67 | COc1ccc(S(=O)(=O)NCCSCc2ccco2)cc1Cl | 6%
68 | Cc1nnc(SCC(=O)Nc2ccc(Br)cc2)[nH]c1=O | 3%
69 | CC(C)N(Cc1ccccc1)C(=O)COC(=O)c1cnccn1 | 4%
70 | CCCNC(=O)c1onc(CSc2ccc(Cl)cc2)c1C(=O)NCC1CC1 | -12%
71 | O=C(OCc1cc(=O)n2nc(-c3cccs3)sc2n1)c1ccccc1Br | 3%
72 | Cc1ccc(SCC(=O)Nc2nnc(-c3ccco3)o2)cc1 | -2%
73 | COc1ccccc1N1CCN(CC(=O)Nc2ccc(-n3cnnn3)cc2)CC1 | -4%
74 | COc1ccccc1CNC(=O)CN1C(=O)c2ccc([N+](=O)[O-])cc2C1=O | 2%
75 | CC(=O)Nc1ccc(N2C(=O)c3cccc4c(O)ccc(c34)C2=O)cc1 | -11%
76 | CSc1nnc2c(n1)OC(c1ccccn1)N(C(C)=O)c1ccccc1-2 (configuration not stated) | -8%
77 | CCCn1ccc2c(OCC(=O)Nc3ccccc3OCC)cccc2c1=O | 2%
78 | COc1ccccc1-c1cc(NCc2ccccc2)ncn1 | 1%
79 | Cc1n[nH]c(=S)c2nn(-c3ccccc3F)c(C)c12 | 0%
80 | C=CCN(CC=C)S(=O)(=O)c1ccc(NC(=S)NC(=O)C2CC2)cc1 | 38%[activator]
81 | CCn1c(SCC(N)=O)nc2ccccc2c1=O | 9%
82 | O=C(NNC(=S)Nc1cccc(C(F)(F)F)c1)c1ccc(Cl)cc1Cl | u
83 | CCNS(=O)(=O)c1ccc(NC(=O)c2c(-c3ccccc3)noc2C)cc1 | 9%
84 | Nc1nc(NCC2CCCO2)nc(Nc2cccc(Cl)c2)c1[N+](=O)[O-] (configuration not stated) | 2%
85 | Cc1ccc(S(=O)(=O)c2nnn3c2nc(N2CCC(C(N)=O)CC2)c2cc(Cl)ccc23)cc1C | -1%
86 | O=[N+]([O-])c1ccc(N2CCc3ccccc3C2)cc1 | -23%
87 | CCOc1cc(C(=O)OCc2cccc(OC)c2OC)ccc1OCC(=O)N1CCOCC1 | u
88 | COC(=O)c1sccc1NC(=O)c1ccc(OC)cc1 | 3%
89 | CCOc1cc(C(=O)NC(C)c2ccncc2)cc(OCC)c1OCC (configuration not stated) | -11%
90 | CCOc1c2ccc(C(=O)NC3CCCc4ccccc43)cc2nn1CC (configuration not stated) | -29%
91 | Cc1ccc(S(=O)(=O)N(C)C)cc1NC(=O)COc1cccc(-n2cnnn2)c1 | -3%
92 | Cc1cc(NC(=O)C(C)SCC(=O)OCc2ccc([N+](=O)[O-])cc2)no1 (configuration not stated) | -4%
93 | CCOCCCNC(=O)Cn1cc2c(n1)CCCCC2 | 0%
94 | COc1cc(/C=N\NC(=O)c2ccccc2F)ccc1Oc1ccc([N+](=O)[O-])cn1 | 10%
95 | CCn1c(CCNS(=O)(=O)c2ccccc2Br)nnc1SC | -12%
96 | CC(=O)Nc1c(C)nn(C(C)=O)c1C | -12%
97 | O=C(OCC(=O)N(CCc1ccccc1)Cc1ccccc1)c1cccc(O)c1 | 1%
98 | CCOC(=O)CNC(=O)C1CCN(S(=O)(=O)c2ccc(-c3nn[nH]n3)cc2)CC1 | 3%
99 | CCCCN(C(=O)c1cnc2n(c1=O)CCS2)c1ccccc1 | 5%
100 | Cc1cccc(-c2c3c(=O)n(C)c(=O)n(C)c3cn2C(C)(C)C)c1 | 0%

Continued, starting with the last 2 of the part before.
# | mol | VDR inh
99 | CCCCN(C(=O)c1cnc2n(c1=O)CCS2)c1ccccc1 | 5%
100 | Cc1cccc(-c2c3c(=O)n(C)c(=O)n(C)c3cn2C(C)(C)C)c1 | 0%
101 | COc1ccc(S(=O)(=O)Nc2ccc3c(c2)N(C(C)=O)CCC3)cc1F | 6%
102 | CC1CCCN(c2ccc([N+](=O)[O-])s2)C1 (configuration not stated) | -27%
103 | CC1(C)NC(C(=O)O)Cc2c1[nH]c1ccccc21 (configuration not stated) | -6%
104 | COc1cc(C(=O)Nc2ccccc2N2CCN(S(C)(=O)=O)CC2)cc(OC)c1OC | -5%
105 | Fc1ccc(C2c3[nH]c4ccccc4c3CCN2CCCn2cccn2)cc1 (configuration not stated) | -4%
106 | O=C(NC1c2ccccc2-c2ccccc21)N1CCOCC1 | -5%
107 | CCOc1ccc(C(=O)Nc2ccccc2N2CCN(C(=O)c3ccccc3)CC2)cc1[N+](=O)[O-] | -1%
108 | Cc1c(N)cc(S(=O)(=O)O)cc1NC(=O)c1cccc([N+](=O)[O-])c1 | 1%
109 | Cc1ccc(CNC(=O)COc2cccc3c2OC(C)(C)C3)cc1 | 5%
110 | O=C(CCCCC(=O)N1CCOCCOCCOCC1)OCc1ccccc1 | 19%
111 | O=c1cnc2cnc(N3CCOCC3)nc2n1C1CC1 | 0%
112 | O=C(NC1CCCC1)C(c1ccc(N2CCOCC2)cc1)N(C(=O)c1ccco1)c1ccccc1F (configuration not stated) | -6%
113 | O=C(NNC(=O)C1CCCC1)c1ccc(F)cc1 | 1%
114 | COCC(=O)OC1CCn2c1nc1c2C(=O)C(C)=C(NC(C)=O)C1=O (configuration not stated) | -4%
115 | CCc1nnc(NC(=O)Nc2ccc(OC)cc2)s1 | 7%
116 | Cc1csc(NC(=O)c2ccncc2)n1 | -5%
117 | Cc1onc(-c2c(F)cccc2Cl)c1C(=O)OCN1C(=O)c2ccccc2C1=O | 13%
118 | COCCCNC(=O)Cn1cc(C(=O)c2cccs2)c2ccccc21 | 8%
119 | COc1cc(CN(C2CC2)S(=O)(=O)c2ccccc2Br)cc(OC)c1 | 1%
120 | CCCOc1ccc(CNC(=O)c2cc3ccccn3n2)cc1 | 17%
121 | COc1ccc(C(=O)NCc2nnc(SCC(=O)N3CCCCC3)o2)cc1 | 3%
122 | CNC(=O)CCc1[nH]c2ccccc2c1Sc1ccccc1 | 4%
123 | NC(=O)c1cccc2c1C(=O)N(C1CCCCC1)C2 | -19%
124 | Cc1ccc(NC(=S)N2CCC(C(=O)c3ccc(F)cc3)CC2)cc1C | -24%
125 | O=c1cc(O)nc2n1CCCS2 | 0%
126 | NNC(=S)NCc1cccnc1 | -1%
127 | Cc1ccc(S(=O)(=O)Nc2ccc(C(=O)N3CCOCC3)cc2)cc1 | -1%
128 | COc1ccc(F)cc1S(=O)(=O)NC(Cc1ccccc1)C(N)=O (configuration not stated) | -12%
129 | CN(C)S(=O)(=O)c1ccc(NC(=O)c2ccncc2)cc1 | 9%
130 | O=C(CSc1ncn[nH]1)N1N=C2/C(=C/c3ccccc3)CCCC2C1c1ccccc1 (configuration not stated) | 12%
131 | CCc1ccc(N=C2NC(=O)/C(=C/c3cc(Br)c(OCC(=O)O)c(OC)c3)S2)cc1 | u
132 | COc1ccc(C(=O)Nc2ccnn2C2CCN(Cc3ccccn3)CC2)cc1 | 0%

From PubChem BioAssay

These rows are one share of the data; the hit share may differ from the screen's.
